High-throughput results from PubChem BioAssay.
PABP FP inh = PABP-poly(A) binding inhibition. P11940. PABP-poly(A) RNA binding, fluorescence polarization. inhibition, % at 35 µM. 1% of 290,000 active. AID 2014;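 active means 50% or more with normal probe brightness, or confirmed in later tests; about a fifth of its hits are not listed in these tables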;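 further: calls also rest on retests at 20 µM and on dose response follow-up; controls were probe without protein and protein plus probe with vehicle; some compounds called inactive have numbers as strong as hits; many hits fall short of the cut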
Target sequence (P11940 whole entry, looked up): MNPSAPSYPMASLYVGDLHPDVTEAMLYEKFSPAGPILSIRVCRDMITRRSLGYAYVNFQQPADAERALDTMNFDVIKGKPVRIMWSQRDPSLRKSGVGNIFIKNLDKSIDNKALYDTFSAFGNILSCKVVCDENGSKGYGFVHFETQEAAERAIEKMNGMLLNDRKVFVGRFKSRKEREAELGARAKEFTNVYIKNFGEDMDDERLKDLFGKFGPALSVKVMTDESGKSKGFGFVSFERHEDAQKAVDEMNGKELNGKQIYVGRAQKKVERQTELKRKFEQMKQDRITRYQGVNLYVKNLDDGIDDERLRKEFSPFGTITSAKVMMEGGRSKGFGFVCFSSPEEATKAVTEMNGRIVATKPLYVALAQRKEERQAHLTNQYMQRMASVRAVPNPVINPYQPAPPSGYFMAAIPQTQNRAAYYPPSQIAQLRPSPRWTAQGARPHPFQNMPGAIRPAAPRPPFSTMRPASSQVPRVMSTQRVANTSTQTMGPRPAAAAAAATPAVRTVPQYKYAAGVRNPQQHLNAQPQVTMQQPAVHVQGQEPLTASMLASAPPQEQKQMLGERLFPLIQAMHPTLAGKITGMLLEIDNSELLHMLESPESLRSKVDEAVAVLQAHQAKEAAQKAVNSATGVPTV
CSC inhib = blocks cancer stem cells | cancer stem cell-like cells viability, luminescence | inhibition, % at 7.5 µM | 1.1% of 300,000 active;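 active means mean at 75% or more and at least half the replicates too; tested in HMLE shEcad cells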;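 further: 0% = median of negative and 100% = median of positive control wells; the first replicate is given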
Rce1 inhib = blocks yeast Ras-converting enzyme | yeast membranes, quenched prenylated peptide cleavage fluorescence | 0.27% of 290,000 active | calls only | Q03530;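 active means fall in fluorescence gain of 50% or more versus controls, with final raw signal at or below 3038400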;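 further: plate controls were neutral control wells for no effect and wells lacking membranes for full effect; tested at 10 µM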
Yeast UUG start = alters start codon recognition fidelity in yeast; activity score, % at 18.7 µM; AID 602363; 0.13% of 350,000 active; S. cerevisiae UUG-firefly luciferase reporter, luminescence/redox ratio;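 active means replicate mean at a twofold rise or more, about +100% in these data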;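 further: firefly luciferase made from a UUG start codon reports start codon fidelity; reporter light over untreated wells divided by growth signal over untreated wells; some hits fall short of that in this replicate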
HIV Env fusion = HIV envelope-mediated fusion inhibition. inhibition, % at 12.3 µM. HeLa-JRFL Env/CEM21 cell fusion, luciferase. 1.1% of 360,000 active;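 active means mean replicate inhibition score of at least 50 and every replicate individually at or above 50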;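 further: 0% = plate neutral controls and 100% = maraviroc near 300 nM; one replicate is shown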
MT1-MMP act inh = blocks activation of human MT1-MMP | 0.061% of 360,000 active | GFP/RFP ratio change, % at 20 µM | P50281 | HT1080 RFP-PRO-GFP cells, GFP/RFP ratio fluorescence, overnight; percent of plate control window, DMSO zero | AID 651647;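 active means GFP/RFP ratio change of at least 30% with cell ATP level not reduced by more than half and red fluorescence within 50% of control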; further: strong numbers were not always called active
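Test system: HT1080 cells expressing an RFP-PRO-GFP fluorescent reporter construct / Compound dosing: single-point 20 µM compound, 1% DMSO / Schedule: cells overnight before dosing, compound overnight, 37 °C, 5% CO2 / Evaluation: GFP/RFP fluorescence ratio / Control set: DMSO and RFP-L50D-GFP cell wells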
eIF4H inh = inhibitors of RNA binding by human eIF4H. eIF4H fluorescence polarization binding assay. inhibition, % at 35 µM. 0.94% of 290,000 active;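 active means 50% or more with normal probe brightness, or confirmed in later tests; about a fifth of its hits are not listed in these tables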;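 further: calls also rest on retests at 20 µM and on dose response follow-up; 0% = protein and probe with vehicle and 100% = probe without protein; strong numbers were not always called active; many hits fall short of the cut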
eIF4H inh retest = further read-out of eIF4H inh, marked with its call; inhibition, %; compound at 20 µM; confirmation average;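 mean of two retest wells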
PABP FP inh retest = also measured in PABP FP inh; calls as there; inhibition, %; compound at 20 µM; confirmation repeats;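 mean of two retest wells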
MT1-MMP act inh RFP = also measured in MT1-MMP act inh; calls as there; RFP signal change, %; measured here: RFP expression control read;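 0 = vehicle wells; hits needed this value within 50% of zero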
Numbers without * were called inactive; i = inactive; x = not tested or not shown.

SMILES	PABP FP inh	CSC inhib	Rce1 inhib	Yeast UUG start	HIV Env fusion	MT1-MMP act inh	MT1-MMP act inh RFP	eIF4H inh	others
CCOc1ccc(S(=O)(=O)NCc2cccnc2)cc1	-2	-13	i	-9	0	2	-5	-5
O=C(O)c1ccccc1C(=O)Nc1ccc(-n2ccc(C(F)(F)F)n2)cc1	6	-5	x	x	-14	-1	-1	2
Cc1nc2ccccc2nc1CN1CCC(CO)(CC2CCCCO2)CC1 (configuration not stated)	-6	x	i	-2	-14	2	3	0
CCN1CCN(c2ccc(Cl)cc2NC(=O)c2ccc(-n3nc(C)cc3C)cc2)CC1	x	x	x	5	11	2	0	x
CC[n+]1ccc(C)c2cc(SC(F)(F)F)ccc21	8	-15	x	-17	x	-10	2	-3
Cc1cc2ccccn2c1C(=O)c1cccc([N+](=O)[O-])c1	-1	22	i	x	3	5	-3	-17
Cc1ccccc1NC(=O)COC(=O)C1CC2CCCC(C1)C2=O (configuration not stated)	x	-2	x	-3	x	3	5	x
CC(C)CC1Nc2ncnc(N3CCCCC3)c2N(Cc2ccc(Br)cc2)C1=O (configuration not stated)	x	30	i	-19	13	2	7	x
CN1CCN(CCCNC(=O)c2ccc(/C=C3\Oc4ccccc4N(Cc4ccccc4F)C3=O)cc2)CC1	-4	13	i	-3	2	4	-1	-4
Cc1ccccc1CNC(=O)CCn1nc(C)c2c(C)n(-c3ccccc3)nc2c1=O	5	-7	i	14	-7	1	0	-7
COc1ccc2c(c1)nc(SCC(=O)c1cccs1)n2C	7	-6	i	-21	x	1	-2	-8
Cc1c(C(=O)N2CCc3ccccc3C2)oc2ccc(Br)cc12	x	-5	i	-9	x	-1	-4	x
CCOC(=O)CN(C(=O)c1ccccc1[N+](=O)[O-])C(C)(C)C	14	-7	i	x	-4	-1	8	-8
CCCOc1ccc2nc(C)c(CCC)c(SC(=N)N)c2c1	5	-7	i	x	26	3	5	-7
COc1ccc(-c2csc3ncn(Cc4ccccc4)c(=O)c23)cc1	-6	50	i	-6	0	x	x	-10
COc1cc(SC)ccc1C(=O)NNC(=O)C1COc2ccccc2O1 (configuration not stated)	x	-15	x	-13	-3	4	1	x
O=C(NCCCN1CCOCC1)C(=O)NCC1OCCN1S(=O)(=O)c1ccc(Br)cc1 (configuration not stated)	6	29	i	-6	x	-2	-1	-1
Cc1cc(C)nc(SC2CC(=O)N(c3ccc(C)c(C)c3)C2=O)n1 (configuration not stated)	4	17	i	-13	-3	-5	-11	-7
N#CC(C#N)=Cc1cc2ccccc2nc1N1CCCCC1	-3	x	i	x	-26	-3	-3	52	eIF4H inh retest=-10;PABP FP inh retest=8
O=C(CN1CCC(NC(=O)Cc2ccccc2)CC1)Nc1cccc2ccccc12	-8	18	i	-20	x	2	-3	-13
O=C(Oc1cccnc1)c1ccc([N+](=O)[O-])cc1	-10	-9	i	x	3	2	6	-8
CCOC(=O)N1CCN(S(=O)(=O)c2ccc(C(=O)N(CCCN(C)C)c3nc4c(C)c(C)ccc4s3)cc2)CC1	x	-5	i	1	-11	1	5	x
O=C(NCc1cccc(Br)c1)C1CC2Cn3c(nc4ccccc43)C2N1Cc1ccccc1 (configuration not stated)	x	-8	i	-18	-8	4	2	x
Cc1noc(C)c1COC(=O)[C@H](C)NS(=O)(=O)c1ccc(Cl)c(Cl)c1	3	6	i	6	x	0	-4	-2

Among those listed so far, these have a halogen:
SMILES	PABP FP inh	CSC inhib	Rce1 inhib	Yeast UUG start	HIV Env fusion	MT1-MMP act inh	MT1-MMP act inh RFP	eIF4H inh	others
O=C(O)c1ccccc1C(=O)Nc1ccc(-n2ccc(C(F)(F)F)n2)cc1	6	-5	x	x	-14	-1	-1	2
CCN1CCN(c2ccc(Cl)cc2NC(=O)c2ccc(-n3nc(C)cc3C)cc2)CC1	x	x	x	5	11	2	0	x
CC[n+]1ccc(C)c2cc(SC(F)(F)F)ccc21	8	-15	x	-17	x	-10	2	-3
CC(C)CC1Nc2ncnc(N3CCCCC3)c2N(Cc2ccc(Br)cc2)C1=O (configuration not stated)	x	30	i	-19	13	2	7	x
CN1CCN(CCCNC(=O)c2ccc(/C=C3\Oc4ccccc4N(Cc4ccccc4F)C3=O)cc2)CC1	-4	13	i	-3	2	4	-1	-4
Cc1c(C(=O)N2CCc3ccccc3C2)oc2ccc(Br)cc12	x	-5	i	-9	x	-1	-4	x
O=C(NCCCN1CCOCC1)C(=O)NCC1OCCN1S(=O)(=O)c1ccc(Br)cc1 (configuration not stated)	6	29	i	-6	x	-2	-1	-1
O=C(NCc1cccc(Br)c1)C1CC2Cn3c(nc4ccccc43)C2N1Cc1ccccc1 (configuration not stated)	x	-8	i	-18	-8	4	2	x
Cc1noc(C)c1COC(=O)[C@H](C)NS(=O)(=O)c1ccc(Cl)c(Cl)c1	3	6	i	6	x	0	-4	-2

Remaining list, next part.
SMILES	PABP FP inh	CSC inhib	Rce1 inhib	Yeast UUG start	HIV Env fusion	MT1-MMP act inh	MT1-MMP act inh RFP	eIF4H inh	others
CCCCC(=O)Nc1nc(-c2ccc(S(=O)(=O)N3CCOCC3)cc2)cs1	2	52	i	3	19	0	-14	-4
COCCCNc1nc2c(c(=O)[nH]c(=O)n2C)n1CC(O)COc1ccccc1 (configuration not stated)	-3	4	i	-6	-13	1	4	6
COc1ccc2c(c1OC)C(=O)OC2N1C(=O)CC[C@H]1C(=O)NCC1CCCO1 (some centres not stated)	-1	-2	i	-12	x	1	4	-6
COc1ccc(CC(=O)O/N=C(\N)Cc2cccc3ccccc23)cc1	16	-1	i	x	-19	14	35	68	eIF4H inh retest=11;PABP FP inh retest=8
O=C(CNC(=O)c1ccccc1)OCC(=O)c1ccccc1Cl	20	4	i	35	8	-1	5	3
Cc1cc2c(cc1C)NC1=C(N2)OC(c2cccc(O)c2)C1=O (configuration not stated)	-2	0	i	x	1	0	-5	-6
Cc1ccc(C(=O)N2CCN(c3ncnc4c(-c5ccccc5)nsc34)CC2)cc1	-5	-7	i	x	x	x	x	-11
Cc1cc(NC(=O)CSc2nnc(-c3ccc4c(c3)OCCO4)o2)no1	-13	x	i	-14	x	1	4	2
O=C(COc1ccc([N+](=O)[O-])cc1)NCc1ccncc1	5	-8	i	x	8	-1	0	-6
COCCCNC(=O)CC1C(=O)N(Cc2ccccc2)C(C)c2nc3ccccc3n21 (configuration not stated)	-14	-9	x	-12	5	-2	1	-9
CCN(CC)c1ccc(/C=N\NC(=O)c2cccc3cc[nH]c23)cc1	-4	0	i	x	-74	3	-10	-7
COC(=O)CC/C(O)=C1\C(=O)CC(C)(C)CC1=Nc1ccccc1OC	-5	-4	i	-13	-122	0	-3	-8

Random excerpt: 2 records from the list, in no set order.
SMILES	PABP FP inh	CSC inhib	Rce1 inhib	Yeast UUG start	HIV Env fusion	MT1-MMP act inh	MT1-MMP act inh RFP	eIF4H inh	others
CCOC(=O)CN(C(=O)c1ccccc1[N+](=O)[O-])C(C)(C)C	14	-7	i	x	-4	-1	8	-8
CCOc1ccc(S(=O)(=O)NCc2cccnc2)cc1	-2	-13	i	-9	0	2	-5	-5

Structural class: those above containing a CF3 group (2)
SMILES	PABP FP inh	CSC inhib	Rce1 inhib	Yeast UUG start	HIV Env fusion	MT1-MMP act inh	MT1-MMP act inh RFP	eIF4H inh	others
O=C(O)c1ccccc1C(=O)Nc1ccc(-n2ccc(C(F)(F)F)n2)cc1	6	-5	x	x	-14	-1	-1	2
CC[n+]1ccc(C)c2cc(SC(F)(F)F)ccc21	8	-15	x	-17	x	-10	2	-3

The listing continues.
SMILES	PABP FP inh	CSC inhib	Rce1 inhib	Yeast UUG start	HIV Env fusion	MT1-MMP act inh	MT1-MMP act inh RFP	eIF4H inh	others
Cc1cc(C)c2c(=O)n(CC(=O)NCCCN3CCN(c4ccccc4F)CC3)sc2n1	-5	16	i	x	x	x	x	-3
CSc1ccc(Cn2nnc(C(=O)NCCc3ccc(Cl)cc3)c2N)cc1	-2	0	i	-19	3	8	3	-1
Nc1nc(-c2ccccc2)c(-c2ccccc2)o1	1	-2	i	-23	7	4	6	-7
Cc1nnc(SC(=O)N2c3ccccc3Sc3ccccc32)s1	-3	53	i	-14	69*	11	-13	-8
CCOP(=O)(c1ccccc1)c1nc(-c2ccc(F)cc2)oc1N1CCCCC1 (configuration not stated)	-5	1	i	-1	x	7	-8	-12
CC1CCCN(Cc2c(O)ccc3c(=O)c(-c4nc5ccccc5s4)c(N)oc23)C1 (configuration not stated)	9	31	i	-9	-7	-1	-8	0
COc1ccc(NC(=O)CSc2ccc(-c3ccco3)nn2)c(OC)c1	5	10	i	-6	-7	0	-5	-4
c1ccc(-c2cnnc(N3CCOCC3)n2)cc1	-1	-1	i	-2	x	0	0	-8
CCCCOC(=O)NC(NCC(O)c1ccccc1)(C(F)(F)F)C(F)(F)F (configuration not stated)	29	1	x	0	44	2	2	20
Cc1ccc(C(=O)Nc2cccc(-c3nc4ncccc4o3)c2)cc1	9	4	i	x	10	3	-1	5
CCc1c(C)sc(NC(=O)c2cc(-c3ccc(O)cc3)on2)c1C#N	15	-3	i	14	0	4	1	19
O=C(O)CCn1c(Cc2ccccc2)nc2ccccc21	2	-9	i	-2	-25	3	2	1
CCOc1ccccc1NC(=O)COC(=O)CC(C)(C)CC1=NS(=O)(=O)c2ccccc2N1	x	-1	i	19	14	-1	-13	x
CC(=O)NNC(=O)CCn1nnc(-c2ccc(Cl)cc2)n1	10	-14	i	-14	-11	2	4	4
CCOC(=O)C1CCN(C(=S)Nc2ccc(C)cc2)CC1	0	-6	i	x	16	3	2	-3
Cc1ccc(S(=O)(=O)N2[C@@H](c3ccccc3F)C(C(=O)O)=CC[C@H]2c2cccc(C)c2)cc1	x	6	x	1	-8	1	3	x
CN(C)C(CNC(=O)c1ccc(OCc2cn3ccccc3n2)cc1)c1ccco1 (configuration not stated)	x	x	x	-35	-10	-3	-2	x
c1ccc(CC2CCCNC2)cc1 (configuration not stated)	-5	0	i	x	-4	-11	-3	-6
Cc1cc(NC(=O)CSc2nc3ccccc3s2)no1	3	-4	x	x	x	-5	-3	-10
CC(=O)Nc1ccc(/C=N/Nc2ccc(C(=O)c3c(C)cc4ccccn34)cc2[N+](=O)[O-])cc1	9	11	i	x	-59	26	-2	8
